Tau ThT inhib: blocks human tau fibril formation measured by thioflavin T; P10636; recombinant tau K18 P301L, heparin-induced fibrillization, ThT fluorescence; hit rate 2.1% among 270,000; Potency, µM (series often up to 57.4 µM), without a hit: at the highest dose activity, negative = inhibition, usual class: inhibitors; AID 1460; also: % is scaled to controls: 0 for no effect and ±100 for the full control effect; nearly all actives have a fitted effect of over 55% in size
Target sequence (P10636 561-689 P618L limits assumed): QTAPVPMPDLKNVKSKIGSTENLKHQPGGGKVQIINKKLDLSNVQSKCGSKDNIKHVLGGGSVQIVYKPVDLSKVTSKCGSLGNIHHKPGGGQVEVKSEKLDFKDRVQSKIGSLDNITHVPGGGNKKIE
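Using a mix of unlabeled (15 uM) and Alexa 594-labeled (0.24 uM) tau K18 P301L, heparin-triggered fibrillization over 6 hr at 37 C was scored by ThT fluorescence.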
KDM4E inh: blocks human JMJD2E demethylase activity | B2RXH2 | JMJD2E catalytic domain, FDH-coupled NADH fluorescence (FDH is formaldehyde dehydrogenase) | Potency, µM (top dose mostly 57.1 µM), inactives show at the highest dose activity change, negative = inhibition, actives largely listed as inhibitors | hit rate 1.6% among 230,000; active = well fitted inhibition curve with a large enough effect, not every such curve was filed as active; inconclusive = small, poorly fitted or top-dose-only effect, or another doubt; inactive = no such curve, though single readings can be large or run the other way;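 also: 0% = wells with enzyme and -100% = buffer wells without enzyme; nearly all actives have a fitted effect of over 50% in size; many of its hits are not listed in these tables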
Target sequence (B2RXH2 1-337 limits assumed): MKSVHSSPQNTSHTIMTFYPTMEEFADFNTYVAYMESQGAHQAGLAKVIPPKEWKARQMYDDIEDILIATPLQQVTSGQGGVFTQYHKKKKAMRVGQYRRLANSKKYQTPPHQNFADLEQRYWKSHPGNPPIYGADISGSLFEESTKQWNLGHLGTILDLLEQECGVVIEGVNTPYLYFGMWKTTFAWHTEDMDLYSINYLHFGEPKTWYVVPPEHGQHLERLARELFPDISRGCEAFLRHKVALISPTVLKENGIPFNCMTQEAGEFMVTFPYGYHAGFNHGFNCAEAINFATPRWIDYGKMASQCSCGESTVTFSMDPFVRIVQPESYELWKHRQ
Luc counter: counter-screen: inhibitors of Kinase-Glo firefly luciferase; Kinase-Glo luciferase, ATP luminescence, 8 min; AID 1379; hit rate 0.28% among 200,000; Potency, µM (series often up to 38.3 µM), for the others: at the top dose activity change, negative = inhibition, most hits filed as inhibitors; Q27757; also: % is scaled to controls: 0 for no effect and ±100 for the full control effect; nearly all actives have a fitted effect of over 60% in size
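Kinase-Glo luciferase light output from ATP and luciferin was measured with 10 uM ATP, within the enzyme's linear range. Buffer: 50 mM imidazole pH 7.2, 50 mM KCl, 7 mM MgCl2, 0.01% Tween 20, 0.05% BSA; luminescence read after 8 min at ambient temperature.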
RECQ1 helicase: RECQ1 (human) helicase inhibition; hit rate 0.54% among 240,000; AID 2549; RECQ1 DNA unwinding, red fluorescence kinetic read; P46063; Potency, µM (doses to about 57.3 µM), inactives show top-dose activity, negative = inhibition, hits mostly inhibitors;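 also: plate controls were vehicle for no effect and no enzyme for full effect; nearly all actives have a fitted effect of over 30% in size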
Target sequence (P46063 whole entry, looked up): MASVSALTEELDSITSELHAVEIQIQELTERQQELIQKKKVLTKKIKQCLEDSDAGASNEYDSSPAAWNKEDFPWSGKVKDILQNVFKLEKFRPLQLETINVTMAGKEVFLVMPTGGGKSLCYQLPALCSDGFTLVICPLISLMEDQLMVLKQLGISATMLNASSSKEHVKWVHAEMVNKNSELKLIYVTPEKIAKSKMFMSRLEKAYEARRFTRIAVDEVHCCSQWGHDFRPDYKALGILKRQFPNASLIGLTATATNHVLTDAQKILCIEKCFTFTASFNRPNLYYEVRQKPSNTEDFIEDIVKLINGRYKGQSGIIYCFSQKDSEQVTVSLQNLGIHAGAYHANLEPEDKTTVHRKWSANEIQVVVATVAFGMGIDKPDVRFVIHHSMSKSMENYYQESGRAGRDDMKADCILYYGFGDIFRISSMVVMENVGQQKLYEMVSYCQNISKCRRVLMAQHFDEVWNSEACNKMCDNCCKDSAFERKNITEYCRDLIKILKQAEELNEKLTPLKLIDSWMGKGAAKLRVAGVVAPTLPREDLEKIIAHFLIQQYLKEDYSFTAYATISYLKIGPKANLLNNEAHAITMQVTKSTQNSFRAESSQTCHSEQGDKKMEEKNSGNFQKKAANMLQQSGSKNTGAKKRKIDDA
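RECQ1T1 50 nM; forked duplex (20 bp + 30-nt ss tails) 200 nM, ATP 2 mM final; pH 8.0, 2 mM MgCl2, 2.5 ug/ml poly(dI-dC); 15 min compound preincubation; discontinuous kinetic read over 2 h at RT.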
L3MBTL1 inh: blocks human L3MBTL1. Q9Y468. AlphaScreen L3MBTL1–H3K9me1 peptide binding. Potency, µM (highest dose often 57.1 µM), for inactives: at the top dose activity, negative = inhibition, usual class: inhibitors. hit rate 0.66% among 230,000; also: % is scaled to controls: 0 for no effect and ±100 for the full control effect; nearly all actives have a fitted effect of over 60% in size
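AlphaScreen assay: L3MBTL1 (50 nM final) was preincubated 30 min at room temperature with biotinylated H3(1-15)K9me1 peptide (75 nM final), then 30 min with library compounds; streptavidin donor and nickel chelate acceptor beads (10 ug/mL final) added, 30 min dark.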
LMNA splice mod: modulators of lamin A splicing; Potency, µM (highest dose often 46.1 µM), for the others: at the highest dose ratio change, negative = inhibition, hits mostly inhibitors; HeLa LMNA splicing GFP/RFP minigene ratio, 48 h; hit rate 0.01% among 200,000; active = well fitted inhibition curve with a large enough effect in the signal ratio, with a control signal flat, not every such curve was filed as active; inconclusive = small, poorly fitted or top-dose-only effect, or effect the other way, or a change in a side signal; the % refers to the signal ratio; also: % is scaled to controls: 0 for no effect and ±100 for the full control effect
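Read-out is the ratio of GFP to DsRed2 object intensity, acquired by 488 nm laser-scanning cytometry on HeLa lamin A-EGFP minigene reporter cells. Compound incubation 48 hrs at 37 °C in Opti-MEM with 2% FBS; DMSO 0.5% final.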
SMN2 splice enh: enhancers of SMN2 splice variant expression; hit rate 2.8% among 210,000; HEK293 SMN2-luciferase splicing reporter, luminescence, 30-36 h; Potency, µM (series often up to 46.1 µM), without a hit: at the highest dose activity change, positive = activation, usual class: activators; also: % of control where 0% means no effect; nearly all actives have a fitted effect of over 55% in size
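HEK293 cells carry an SMN2 […]–luciferase reporter in which exon 7 inclusion puts luciferase in frame. Cells were plated 10-12 h before compound addition, then incubated 30-36 h at 37C. ONE-Glo luminescence was read; sodium butyrate at 4.5 mM final served as control.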
* = called active by the depositor; i = inactive; u = inconclusive; x = not tested or not shown; [ ] = remark or other dose. Unless noted, calls follow the shape of the dose curve; as a rule, active = well fitted curve in the direction sought with a large enough effect; inconclusive = small, poorly fitted or top-dose-only effect, or another doubt; inactive = no such curve, though single readings can be large; an effect the other way counts as inactive or inconclusive. Potency is read from the fitted curve at half-maximal effect.

Below each SMILES: Tau ThT inhib | KDM4E inh | Luc counter | RECQ1 helicase | L3MBTL1 inh | LMNA splice mod | SMN2 splice enh
COCCCNC(=S)N1CCN(c2ccccc2)CC1
 : -12% | 0% | 2% | -14% | 16% | 0%[46 µM] | 0%
COc1cccc2sc(N)nc12
 : x | x | x | -5% | -1% | x | 11%
Cc1nn(-c2ccccc2)c(C)c1-c1cc(C(=O)N/N=C/c2cccnc2)[nH]n1
 : -16% | -1% | 1% | -2% | 1% | -16%[46 µM] | u
CC1=CC(C)(C)[N+](C)(C)c2ccc(C)cc21
 : -3% | u | 1% | -1% | 10% | 1%[46 µM] | -5%
Cn1c(=O)c2c(nc3n2CCS3)n(C)c1=O
 : -4% | -2% | 2% | i | 11% | u | 2%
FC(F)(F)c1ccccc1-c1cc(NCc2ccccc2)ncn1
 : x | x | x | -9% | x | u | x
O=S(=O)(Nc1ccc(Cc2ccncc2)cc1)c1ccc(Cl)s1
 : -3% | -5% | 5% | i | 0% | u | -22%
CCOc1ccc(NC(=O)C2CCCN(S(=O)(=O)c3c(C)nn(C)c3C)C2)cc1 (stereo unspecified)
 : -17% | -4% | -1% | -4% | x | -2% | -9%
Cc1ccc(-c2cnc(NCc3cc4c(cc3[N+](=O)[O-])OCO4)n2C)cc1C
 : 3% | -14% | -2% | 4% | -8% | 14%[46 µM] | x
CCCC(=O)Nc1c(C)n[nH]c1C
 : -11% | -4% | -3% | i | -3% | 4% | 2%
Cc1cc(S(=O)(=O)NC(C)C)ccc1OCC(=O)Nc1ccc2c(c1)OCCO2
 : -10% | -7% | -2% | -10% | 7% | 12%[46 µM] | x
COc1ccc(CNC(=O)CN2CCC(C(=O)c3ccc(OC)cc3)CC2)cc1
 : 4% | -2% | 11% | 14% | -3% | u | -51%[inhibitor]
COc1ccc(CCNS(=O)(=O)c2cccs2)cc1
 : -4% | 0% | 0% | -19% | x | -1% | 11%
Cc1ccc(C)c(N(C(=O)Cn2nnc3ccccc32)C(C(=O)NC(C)(C)C)c2ccsc2)c1 (stereo unspecified)
 : 1% | 5% | 0% | -4% | 32%[activator] | 6% | -11%
Cc1cccc(S(=O)(=O)NNC(=O)c2sc(C)nc2C)c1
 : 6% | -1% | -2% | 6% | 12% | u | -55%[inhibitor]
O=C(CNc1cccc(Cl)c1)c1ccc(Cl)cc1
 : -20% | 3% | 0% | -5% | 1% | u | -5%
Cc1oc(-c2cccc(Cl)c2)nc1CN1CCC(C(=O)NCc2cccnc2)CC1
 : -5% | 2% | 8% | i | 1% | 6% | -13%
CCOC(=O)C1=C(C)NC(=O)NC1c1ccccc1 (stereo unspecified)
 : -5% | 0% | 3% | i | -1% | 3% | 12%
COC(=O)c1sc(=S)n(-c2cccc(Cl)c2)c1N
 : -10% | -16% | 2% | i | 1% | 11%[0.0737 µM] | 10%
NC(=O)COc1ccc(NC(=O)c2ccccc2-c2ccccc2)cc1
 : -5% | -9% | -1% | i | 7% | u | -1%
COC(=O)c1sccc1NC(=O)Cc1ccc(OC)c(OC)c1
 : 1% | 0% | -2% | -1% | -3% | u | x
C[C@H]1CN=C2N(CCNC(=O)CCC3CCCCC3)[C@H](Cc3ccc(O)cc3)CN21
 : 3% | -2% | x | -18% | 8% | x | x
CCOC(=O)C1(CCOc2ccccc2)CCN(Cc2cccc(-n3cccn3)c2)CC1
 : -8% | u | -4% | -4% | -8% | -2%[46 µM] | x
CCNc1nc(Cl)nc(NCCOc2ccc(C)cc2)n1
 : -10% | 12% | 0% | 5% | 6% | 0% | -6%
O=[N+]([O-])c1cc(/C=N/OCc2c(Cl)cccc2Cl)ccc1N1CCOCC1
 : u | 2% | 3% | -1% | u | u | -32%[inhibitor]
CNC(=O)C1CC(=O)N(Cc2ccc3c(c2)OCO3)C(=Nc2ccc(F)cc2)S1 (stereo unspecified)
 : 4% | -2% | 1% | 1% | 7% | 2% | -9%
COc1cc(OC)c(OC)cc1CN1CCN(c2ccccc2OC)CC1
 : -2% | u | 1% | i | -2%[11.4 µM] | u | 24%
Cn1c(SCCN2CCCCC2)nnc1-c1ccccc1Br
 : 3% | u | 0% | -14% | -11% | 7% | 3%
Cc1ccccc1Nc1nc(N)nc(CSc2nnc3ccccn23)n1
 : 1% | 2% | 5% | -4% | -3% | 6%[46 µM] | u
CCOc1ccc(-c2nc(N)ncc2-c2ccc(OC)cc2)c(O)c1
 : u | 2% | 13% | -5% | -5% | u | 13%

A few values from above:
RECQ1 helicase with CCOC(=O)C1(CCOc2ccccc2)CCN(Cc2cccc(-n3cccn3)c2)CC1 → -4%
Luc counter with COc1cc(OC)c(OC)cc1CN1CCN(c2ccccc2OC)CC1 → 1%
L3MBTL1 inh with COC(=O)c1sccc1NC(=O)Cc1ccc(OC)c(OC)c1 → -3%
SMN2 splice enh with NC(=O)COc1ccc(NC(=O)c2ccccc2-c2ccccc2)cc1 → -1%
Tau ThT inhib with Cc1ccc(C)c(N(C(=O)Cn2nnc3ccccc32)C(C(=O)NC(C)(C)C)c2ccsc2)c1 (stereo unspecified) → 1%

Returning to the listing, repeating the two entries before the break.
Below each SMILES: Tau ThT inhib | KDM4E inh | Luc counter | RECQ1 helicase | L3MBTL1 inh | LMNA splice mod | SMN2 splice enh
Cc1ccccc1Nc1nc(N)nc(CSc2nnc3ccccn23)n1
 : 1% | 2% | 5% | -4% | -3% | 6%[46 µM] | u
CCOc1ccc(-c2nc(N)ncc2-c2ccc(OC)cc2)c(O)c1
 : u | 2% | 13% | -5% | -5% | u | 13%
Cc1cc(NC(=O)CSc2nc(-c3ccccc3)nc3c2c(=O)n(C)c(=O)n3C)no1
 : -4% | 10% | x | i | 9% | x | x
O=C(CSc1nnc(-c2ccncc2)n1CC1CCCO1)Nc1ccccc1Cl (stereo unspecified)
 : -6% | 7% | 0% | -6% | -3% | x | x
Nc1n[nH]c(-c2ccccc2[N+](=O)[O-])n1
 : 8% | 11% | 2% | 1% | 4% | -6% | 22%
COc1cccc(Oc2nccc(N(C)C)c2C#N)c1
 : -4% | 8% | x | i | 1% | x | x
c1ccc2oc(SCc3nc4ccccc4s3)nc2c1
 : u | -1% | -8% | -4% | x | 0% | u
N=c1sccn1CC(=O)Nc1cc(S(=O)(=O)N2CCCC2)ccc1Cl
 : 4% | 0% | -3% | -1% | 0% | -4%[46 µM] | 5%
COCc1nnc(NC(=O)CC(C)C)s1
 : -2% | 1% | -2% | 1% | 1% | -2% | 8%
CCC1=NN(C(=O)COc2ccccc2C)C(O)(c2ccncc2)C1 (stereo unspecified)
 : 2% | -7% | 0% | 0% | 2% | x | -5%
O=C1CSC(c2ccc(Cl)cc2)N1 (stereo unspecified)
 : -15% | 6% | -2% | -7% | x | 8% | 0%
O=C(CSc1nc2ccccc2c(=O)n1-c1ccc(F)cc1)Nc1ccc(Cl)c(S(=O)(=O)N2CCOCC2)c1
 : -4% | -12% | 0% | u | -3% | -1% | -10%
CCOc1ccccc1NC(=S)N(CCC(C)C)C1CCN(C(C)=O)CC1
 : -3% | -2% | 6% | -14% | -7% | u | -15%
O=c1c2sccc2n(Cc2cccc(F)c2)c(=O)n1-c1ccc(F)cc1
 : -16% | 5% | 0% | -2% | 5% | -7% | -11%
Cc1ccc(NC(=O)C2CCCN(C(=O)c3ccc(Cl)cc3)C2)c(C)c1 (stereo unspecified)
 : -1% | 5% | 3% | -12% | x | x | 4%
CCN(CCn1cccn1)C(=O)CC1C(=O)NCCN1Cc1cc(OC)cc(OC)c1 (stereo unspecified)
 : -3% | -14% | x | i | 2% | x | x
CN(/C(=N/S(=O)(=O)c1ccccc1)c1ccccc1)S(=O)(=O)c1ccccc1
 : -6% | -2% | -2% | -1% | -2% | -6% | 5%
CC(C)CCNC(=O)c1cccnc1Sc1ccccc1
 : 4% | -8% | -3% | -1% | 5% | -12% | -2%
CC(NC(=O)c1ccccc1)c1ccc(F)cc1 (stereo unspecified)
 : -8% | 11% | 1% | 1% | 6% | -9% | -16%
O=C(Cn1c(=O)oc2ccccc21)NCCc1ccccc1Cl
 : -6% | 6% | 0% | i | 14% | -8%[46 µM] | -7%
COC1C(OC(=O)/C=C/C=C/C=C/C=C/C(=O)O)CCC2(CO2)C1C1(C)OC1CC=C(C)C (stereo unspecified)
 : x | x | x | x | x | u | x
N/C(=N\OC(=O)CSc1ccccc1)c1ccc([N+](=O)[O-])cc1
 : u | -3% | 1% | 3% | -13% | -24% | u
CC1CCc2nc3ccc(S(=O)(=O)N4CCC(C(=O)N5CCCCC5)CC4)cc3c(C(=O)O)c2C1 (stereo unspecified)
 : -3% | -16% | -1% | -4% | x | -2% | -1%
C#CCNC(=O)C1=C[C@H](c2csc3ccccc23)[C@@H](CCCO)[C@H](OCC)O1
 : 6% | 1% | x | -6% | 5% | x | x
O=C(CCl)Nc1cccc2ncccc12
 : -16% | -7% | 1% | -4% | 13% | u | -61%[inhibitor]
Cc1csc2nc(CNC(=O)c3cccc(C(F)(F)F)c3)cn12
 : -18% | -2% | 0% | -10% | -5% | u | -3%
O=C1N[C@@H](Cc2cnc[nH]2)C(=O)N2CCC[C@@H]12
 : -10% | -7% | -1% | i | 10% | -2% | -5%
CCNC(=S)N1CCC(NC(=O)c2ccco2)CC1
 : -4% | -3% | -6% | 4% | -4% | 5%[46 µM] | -5%
COc1ccccc1CNC(=O)C1CC(c2cccc([N+](=O)[O-])c2)=NO1 (stereo unspecified)
 : -17% | 9% | 0% | -8% | 8% | -9% | -2%
Cc1ccc(-c2csc(N3CCC(C(N)=O)(N4CCCCC4)CC3)n2)cc1
 : -8% | 10% | -3% | 0% | x | -1% | -35%[inhibitor]
CCS(=O)(=O)N1CCCC(C(=O)NCc2ccccc2Cl)C1 (stereo unspecified)
 : -3% | -7% | -1% | 1% | 15% | 12% | -4%
CC#CCCc1nc2ccccc2c(=O)n1N
 : -5% | 2% | -1% | 3% | 0% | 3% | -7%

Sorted by molecular weight (rising): 4 of the compounds above.
Below each SMILES: Tau ThT inhib | KDM4E inh | Luc counter | RECQ1 helicase | L3MBTL1 inh | LMNA splice mod | SMN2 splice enh
O=C(CCl)Nc1cccc2ncccc12
 : -16% | -7% | 1% | -4% | 13% | u | -61%[inhibitor]
COCc1nnc(NC(=O)CC(C)C)s1
 : -2% | 1% | -2% | 1% | 1% | -2% | 8%
c1ccc2oc(SCc3nc4ccccc4s3)nc2c1
 : u | -1% | -8% | -4% | x | 0% | u
CCC1=NN(C(=O)COc2ccccc2C)C(O)(c2ccncc2)C1 (stereo unspecified)
 : 2% | -7% | 0% | 0% | 2% | x | -5%

Screening results (PubChem)

The list is partial. The share of hits here may be higher or lower than overall.
